# ClpP mod = qHTS Assay for Activators of ClpP. ATP-dependent Clp protease proteolytic subunit (Bacillus subtilis (strain 168)), P80244. 340,000 compounds, 1.9% hits. purified B. subtilis ClpP, FRET peptide cleavage, 20 min. Potency, µM (highest dose often 57.5 µM), without a hit: top-dose activity change, negative = active. AID 651965, 2013; active = well fitted falling curve with a large enough effect; inconclusive = small, poorly fitted or top-dose-only effect; inactive = no such curve, though single readings can be large or run the other way; also: potency is read from the fitted curve at half-maximal effect; the source files actives as falling curves though it sought activators and does not explain the sign; nearly all actives have a fitted effect of over 65% in size; many hits overshoot -100%
# Target sequence (P80244 whole entry, looked up): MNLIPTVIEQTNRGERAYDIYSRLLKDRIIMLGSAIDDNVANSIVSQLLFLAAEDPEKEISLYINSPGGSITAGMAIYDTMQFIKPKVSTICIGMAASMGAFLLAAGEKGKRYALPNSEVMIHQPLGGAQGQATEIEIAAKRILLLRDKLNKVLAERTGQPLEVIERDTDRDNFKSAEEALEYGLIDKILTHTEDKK
#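 FRET quenching reversal measured ClpP activation: 10 microg/mL B. subtilis ClpP at pH 8 with the FRET-FV decapeptide, read at 430 nm after 320 nm excitation. The 20-min minus 0-min signal was scaled between DMSO/no-enzyme wells and ADEP (5.8 microM final).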
# gsp ag = activates gsp, the McCune-Albright syndrome mutation; gsp mutant cells, cAMP HTRF, 30 min; control for the full effect not named in the record; Potency, µM (titrated, usually from 76.9 µM), without a hit: at the top dose activation (cAMP increase), actives largely listed as activators; 340,000 compounds, 0.13% hits; active = well fitted activation curve with a large enough effect; inconclusive = small, poorly fitted or top-dose-only effect, or another doubt; inactive = no such curve, though single readings can be large or run the other way; cell line not stated here;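 also: phosphodiesterase inhibitor Ro 20-1724 added with compounds to block cAMP breakdown; potency is read from the fitted curve at half-maximal effect; nearly all actives have a fitted effect of over 60% in size; about a fifth of the inactives were tested at one dose only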
#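 Cells stably selected in G418 were plated at 2000/well, grown 16-24 hr, then given compounds in DMSO with the PDE inhibitor […] (300 uM solution added) for 30 min at 37C; cAMP was read by HTRF.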
# D2 potentiator = positive allosteric modulators of human D2 dopamine receptor | DiscoveRx D2 beta-arrestin cells, luminescence, 90 min; 100% = 57 uM dopamine signal | P14416 | 360,000 compounds, 0.23% hits | AID 624464 | potentiation, % (concentration not given with the values); active = potentiation of 50% or more; inconclusive = 30% to 50%; inactive = 30% or less;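 also: tested on top of an EC20 dose of dopamine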
#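 PathHunter beta-arrestin assay in DiscoveRx D2 cells. Compounds were added with an EC20 of dopamine (50 nM final) for 90 min at 37 deg C. Luminescence was read 1 h after detection reagent, with 57 uM dopamine as the EC100 control.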
# gsp antagonist = antagonists of gsp mutant (McCune-Albright syndrome). gsp-mutant cells, cAMP HTRF, 30 min; control for the full effect not named in the record. Potency, µM (series often up to 76.9 µM), without a hit: at the top dose activity change, negative = inhibition, hits mostly inhibitors. 340,000 compounds, 0.4% hits. AID 624288; active = falling curve of any shape with a large fitted effect; inconclusive = falling curve, mostly with a smaller effect; inactive = flat or rising curve; cell line not stated here;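 also: intracellular cAMP measured with PDE inhibitor Ro 20-1724 present during compound exposure; potency is read from the fitted curve at half-maximal effect; % is scaled to controls: 0 for no effect and ±100 for the full control effect; nearly all actives have a fitted effect of over 65% in size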
#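 Cells in G418 medium, seeded 16-24 h, 37C; buffer exchange to DPBS + 1 mM CaCl2, 0.5 mM MgCl2, 0.05% BSA; cpds in DMSO + […] (300 uM stock), 30 min 37C; HTRF cAMP detection.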
# Sfp PPTase inh = blocks B. subtilis Sfp PPTase activity. Q9F4F7. Biochemical Sfp PPTase activity, qHTS. Potency, µM, for inactives: max response, negative = inhibition, actives largely listed as inhibitors. 310,000 compounds, 3.5% hits. AID 1490; active = well fitted inhibition curve with a large enough effect; inconclusive = small, poorly fitted or top-dose-only effect, or another doubt; inactive = no such curve, though single readings can be large or run the other way;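 also: the enzyme is Sfp with the accession as filed and its product quenches rhodamine fluorescence; potency is read from the fitted curve at half-maximal effect; 0% = enzyme reaction without inhibitor and -100% = no enzyme wells; top concentration of the series not given in the record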
#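 Fluorescence-quenching assay with 15 nM Sfp, 5 uM rhodamine-CoA and 12.5 uM BHQ-2-labelled ybbR peptide in pH 7.6 Hepes/MgCl2 buffer. Enzyme was pre-incubated with compound for 15 min at room temperature. Rate was taken from the 30-min fluorescence change (525/598 nm).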
# Menin-MLL FL inh = inhibitors of human menin-MLL interaction, wild-type MLL peptide; FP activity change, % at 61.4 µM; Fluorescence polarization, fluorescein-MLL peptide displacement from menin; 290,000 tested, under 10 active; inconclusive = falling polarisation curve, or a change in total fluorescence; inactive = total fluorescence flat and polarisation flat or rising; no compound was filed as active; the % refers to the polarisation; negative = inhibition;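 also: % of control where 0% means no effect; inhibitors lower the polarisation; unlabelled MLL peptide was the positive control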
# TRPV1 PAM = human TRPV1 potentiation; Q8NER1; TRPV1-expressing cells, Fluo-8 calcium influx, capsaicin EC20 potentiation; host cell line not named in the record; control for the full effect not named in the record; potentiation, % at 8.33 µM; 320,000 compounds, 0.02% hits; AID 540277; active means potentiation above 80%; inconclusive means 30% to 80%; inactive means below 30%; also: 0% is about no effect
# Target sequence (Q8NER1 whole entry, looked up): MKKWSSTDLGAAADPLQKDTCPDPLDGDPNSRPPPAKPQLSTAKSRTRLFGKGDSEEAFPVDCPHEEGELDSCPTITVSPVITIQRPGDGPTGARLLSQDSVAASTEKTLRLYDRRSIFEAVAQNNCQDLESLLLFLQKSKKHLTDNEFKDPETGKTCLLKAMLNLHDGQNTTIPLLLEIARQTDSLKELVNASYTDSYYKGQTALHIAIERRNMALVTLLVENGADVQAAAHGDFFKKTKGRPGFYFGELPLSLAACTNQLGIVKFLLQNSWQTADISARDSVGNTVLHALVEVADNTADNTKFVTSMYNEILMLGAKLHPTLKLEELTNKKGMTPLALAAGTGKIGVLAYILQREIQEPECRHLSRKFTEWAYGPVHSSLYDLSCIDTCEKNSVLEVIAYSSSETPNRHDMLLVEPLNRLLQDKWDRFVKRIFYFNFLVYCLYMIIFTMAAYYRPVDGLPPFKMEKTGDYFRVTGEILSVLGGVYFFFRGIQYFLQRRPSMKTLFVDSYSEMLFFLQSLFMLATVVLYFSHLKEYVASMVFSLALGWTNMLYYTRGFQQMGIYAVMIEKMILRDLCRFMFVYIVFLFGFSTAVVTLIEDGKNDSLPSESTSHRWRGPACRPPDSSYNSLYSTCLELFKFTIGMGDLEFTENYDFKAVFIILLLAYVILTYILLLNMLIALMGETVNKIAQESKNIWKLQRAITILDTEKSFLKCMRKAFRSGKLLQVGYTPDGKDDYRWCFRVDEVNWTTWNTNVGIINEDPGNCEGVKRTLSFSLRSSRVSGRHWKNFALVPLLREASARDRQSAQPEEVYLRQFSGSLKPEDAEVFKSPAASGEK
#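 Cells expressing TRPV1 were dye-loaded with Fluo-8 and read kinetically: 10 s baseline, 3 min after compound (agonist portion), then 2 min after EC20 capsaicin (allosteric enhancer portion). Calcium-bound dye fluorescence at 480/520 nm.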
# An asterisk follows results filed as active; ? = inconclusive; / = not tested or not shown; & = joins results of further samples; [ ] = another dose, or the depositor's remark.
entry	SMILES	ClpP mod	gsp ag	D2 potentiator	gsp antagonist
1	O=C(Nc1cc(F)c(Br)cc1F)c1ccc(Cl)cc1	/	?	-10	2%
2	Cc1cc2c3ccccc3[nH]c(=O)n2n1	-28%	?	-5	/
3	COc1ccc(Cl)cc1C(=O)OCC(=O)NC(=O)c1cccn1C	-24%	-9%	-5	-6%
4	Cc1ccc2c(CC(=O)N3CCN(S(=O)(=O)c4ccc5c(c4)OCCO5)CC3)coc2c1	-2.4%	-6%	21	2%
5	CCCCCc1ccc(C(=O)CCC(=O)OCC(=O)N(CC)c2c(N)n(Cc3ccccc3)c(=O)[nH]c2=O)cc1	0.7%	5%	3	-1%
6	COc1cc2c(c(OC)c1OC)CCc1cnoc1-2	-7.5%	-4%	-20	1%
7	CCS(=O)(=O)c1nc(S(=O)(=O)c2ccc(C)cc2)c(NCCN2CCOCC2)s1	0.5%	?	-9	6%
8	COc1ccc(CN2CCC[C@]3(N[C@H](c4ccc(C(F)(F)F)cc4)[C@@H]4C(=O)N(C)C(=O)[C@@H]43)C2=O)cc1	1.7%	-75%[inhibitor]	-8	/
9	Cc1cccc(NC(=O)N2CCC(NC(=O)c3ccccc3C)CC2)c1	0.0%	11%	9	-2%
10	CCSc1nnc(NC(=O)Cc2cc(OC)c(OC)c(OC)c2)s1	/	10%[15.4 µM]	1	?

entry	Sfp PPTase inh	Menin-MLL FL inh	TRPV1 PAM
1	11%	-0.5	-11
2	/	/	/
3	12%	1.6	2
4	15%	-4.2	-1
5	/	/	-1
6	-7%	-11	-5
7	13%	/	-13
8	/	/	/
9	11%	4.7	-3
10	3%	-4.0	11

# Overlap with the part before: 5 compounds, followed by the next part.
entry	SMILES	ClpP mod	gsp ag	D2 potentiator	gsp antagonist
6	COc1cc2c(c(OC)c1OC)CCc1cnoc1-2	-7.5%	-4%	-20	1%
7	CCS(=O)(=O)c1nc(S(=O)(=O)c2ccc(C)cc2)c(NCCN2CCOCC2)s1	0.5%	?	-9	6%
8	COc1ccc(CN2CCC[C@]3(N[C@H](c4ccc(C(F)(F)F)cc4)[C@@H]4C(=O)N(C)C(=O)[C@@H]43)C2=O)cc1	1.7%	-75%[inhibitor]	-8	/
9	Cc1cccc(NC(=O)N2CCC(NC(=O)c3ccccc3C)CC2)c1	0.0%	11%	9	-2%
10	CCSc1nnc(NC(=O)Cc2cc(OC)c(OC)c(OC)c2)s1	/	10%[15.4 µM]	1	?
11	CCC(=O)N1CCCc2cc(S(=O)(=O)N3CCN(C4CCCCC4)CC3)ccc21	-2.3%	-17%	-31	5%
12	O=C(NN=C1CCCC1)c1n[nH]c2c1CCC2	/	6%[15.4 µM]	-7	5%
13	Cc1nccn1-c1ccc(C(F)(F)F)cc1[N+](=O)[O-]	/	5%[15.4 µM]	3	14%
14	c1ccc(-c2ncnc3nc4n(c23)CCC4)cc1	-0.4%	2%	-4	6%
15	COc1cccc(CN(C)C(=O)c2ccc(S(=O)(=O)N3CCCC3)cc2)c1OC	-1.3%	-39%[inhibitor]	4	6%
16	C/C(=N\Nc1cccc2cccnc12)c1ccc[nH]1	-2.5%	-2%[15.4 µM]	-19	0%
17	Oc1cc(Cc2ccccc2)cnc1CN1CCCCC1	-5.5%	-4%	-16	4%
18	COC(=O)c1ccc2ccn(CC(=O)NC3CCCCC3)c2c1	8.9µM*	-33%[inhibitor]	-4	17%
19	CN(C)S(=O)(=O)c1cccc(C(=O)OCC(=O)Nc2sccc2C(N)=O)c1	-2.8%	-7%	25	-18%
20	Cc1ccc(NC(=O)c2c(C(F)(F)F)nn(C)c2SCc2cccc(C(F)(F)F)c2)cc1C	-0.8%	0%	6	-30%

entry	Sfp PPTase inh	Menin-MLL FL inh	TRPV1 PAM
6	-7%	-11	-5
7	13%	/	-13
8	/	/	/
9	11%	4.7	-3
10	3%	-4.0	11
11	10%	1.1	-12
12	14%	0.1	-5
13	17%	-2.5	-2
14	15%	-3.3	-10
15	-15%	3.4	-13
16	-14%	3.0	9
17	-12%	-0.6	22
18	13%	2.5	-1
19	3%	1.5	-1
20	35%[activator]	1.1	-8

# Complete entries, quoted from the list.
# COc1cccc(CN(C)C(=O)c2ccc(S(=O)(=O)N3CCCC3)cc2)c1OC is listed as ClpP mod = -1.3%; gsp ag = -39%[inhibitor]; D2 potentiator = 4; gsp antagonist = 6%; Sfp PPTase inh = -15%; Menin-MLL FL inh = 3.4; TRPV1 PAM = -13
# CCC(=O)N1CCCc2cc(S(=O)(=O)N3CCN(C4CCCCC4)CC3)ccc21 is listed as ClpP mod = -2.3%; gsp ag = -17%; D2 potentiator = -31; gsp antagonist = 5%; Sfp PPTase inh = 10%; Menin-MLL FL inh = 1.1; TRPV1 PAM = -12

# (list continues)
entry	SMILES	ClpP mod	gsp ag	D2 potentiator	gsp antagonist
21	CC(C)N1CCN(C(=O)C2CCC(=O)N(CCc3cccc(F)c3)C2)CC1 (stereo unspecified)	-2.0%	-19%	16	-10%
22	COc1ccc(NC(=O)c2c(OC)cccc2OC)c(OC)c1	-1.5%	0%	-16	-1%
23	COc1ccccc1NC(=O)c1ccc([N+](=O)[O-])o1	-0.5%	-7%	3	-10%
24	O=C(Nc1ccc(Cl)c(Cl)c1)N1CC=C(c2ccccc2)CC1	-2.4%	-16%	-8	-19%
25	Cc1cc(C)c(C#N)c(Nc2ccc(F)cc2)n1	?	-22%	-1	-12%
26	CCOC(=O)c1cc(-c2ccccc2)sc1NC(=O)C(C)OC(=O)c1cccnc1Cl (stereo unspecified)	?	-24%	-21	-2%
27	Cc1ccc(NCc2nnc(SCC(=O)O)n2Cc2ccccc2)cc1Cl	/	-48%[inhibitor]	7	-2%
28	COc1ccc(CS(=O)(=O)c2nc(C)cc(C)c2S(C)(=O)=O)cc1	/	?	5	0%
29	CCCN(C(=O)CSCc1ccc(C)cc1)c1c(N)n(Cc2ccccc2)c(=O)[nH]c1=O	-7.7%	42%	-18	/
30	O=C(Cc1cccc([N+](=O)[O-])c1)Nc1cccc(C(=O)N2CCCCC2)c1	1.3%	23%	-1	-5%

entry	Sfp PPTase inh	Menin-MLL FL inh	TRPV1 PAM
21	12%	-0.5	-10
22	2%	-1.1	2
23	/	/	/
24	15%	8.7	-4
25	4%	-0.4	?
26	-3%	6.1	14
27	19%	0.2	9
28	5%	-1.2	8
29	/	/	/
30	/	/	/

# Other compounds.
entry	SMILES	ClpP mod	gsp ag	D2 potentiator	gsp antagonist
31	CCOc1ccccc1NC(=O)c1ccc(NC(=O)c2ccco2)cc1	-2.4%	1%	1	-30%
32	O=C(COC(=O)c1cccc(Cl)c1)Nc1ccc2[nH]c(=O)[nH]c2c1	2.4%	8%[15.4 µM]	-5	14%
33	CCOC(=O)c1cc(NC(=O)Nc2ccccc2Cl)c(C)nc1C	/	19%[15.4 µM]	-9	-11%
34	Cc1cc(C)c(C(=O)Nc2ccc3c(c2)OCCO3)c(C)c1	-4.5%	-31%	-8	/
35	COc1ccc(Nc2nc(-c3ccc(OC)cc3)c(CCC(=O)O)s2)cc1	/	-1%[15.4 µM]	5	?
36	CC1(C)CC(=O)C(Sc2ccccc2C(=O)O)=C(O)C1	-2.0%	-12%[15.4 µM]	-9	2%
37	CCOc1ccc(S(=O)(=O)NCc2ccc3c(c2)OCO3)cc1C(=O)O	-0.3%	?	-8	5%
38	O=C(O)c1cc2c(s1)-c1ccccc1OC2	?	7%	-12	-3%
39	COC(=O)[C@]1(Cc2ccccc2)N[C@H](c2ccc(-c3ccc4c(c3)OCO4)cc2)[C@@H]2C(=O)N(C)C(=O)[C@@H]21	?	-26%	-8	-11%
40	COc1ccc2nc(C)c(C(N)=O)cc2c1	4.2%	-2%[15.4 µM]	-2	9%

entry	Sfp PPTase inh	Menin-MLL FL inh	TRPV1 PAM
31	6%	2.1	-10
32	/	/	2
33	10%	-2.1	-9
34	/	/	/
35	12%	-0.9	-9
36	2%	1.4	13
37	13%	1.5	?
38	-16%	-1.7	5
39	/	/	?
40	11%	0.6	-6

# (listing goes on)
entry	SMILES	ClpP mod	gsp ag	D2 potentiator	gsp antagonist
41	CC(=O)Nc1sc(N/N=C\c2cccc(Cl)c2)nc1-c1cccs1	0.5%	-15%[15.4 µM]	14	-5%
42	O=[N+]([O-])c1ccc(NS(=O)(=O)N2CCOCC2)cc1	-2.3%	-2%	-14	3%
43	Cc1cc(C)nc(SCc2cc(=O)c(OC(=O)c3ccco3)co2)n1	1.3%	14%	6	2%
44	O=C(CNCc1ccc(Cl)cc1)Nc1cccc(C(=O)O)c1	/	7%	4	5%
45	O=C(Nc1cccc(F)c1)N(Cc1ccc(Cl)cc1)CC(O)C(F)(F)F (stereo unspecified)	0.8%	-11%	6	-20%
46	CCC(C)N(C(=O)COC(=O)/C=C/c1ccc(O)c(OC)c1)C1CCS(=O)(=O)C1 (stereo unspecified)	?	-34%[inhibitor]	3	4%
47	COC(=O)C[C@H]1c2ccc(C(F)(F)F)cc2S(=O)(=O)N1Cc1ccccc1	1.2%&-1.5%	-54%[inhibitor]	-2	-2%
48	Cc1cc(=S)[nH]c2ccccc12	-1.0%&-5.3%	0%	-9	10%
49	CCC(Oc1ccccc1)C(=O)Nc1nnc(C)s1 (stereo unspecified)	0.2%	-30%[inhibitor]	-6	8%

entry	Sfp PPTase inh	Menin-MLL FL inh	TRPV1 PAM
41	-4%	0.7	12
42	/	/	/
43	18%	2.1	-10
44	-10%	3.3	-4
45	-9%	1.8	-18
46	2%	1.9	-13
47	/	/	/
48	?	0.4	7
49	8%	3.5	2

# Source: PubChem BioAssay

# An unsorted share of the library; overall some 5.1% were active at least once.
